From PubChem
GIV Gai3 FP = inhibitors of GIV peptide binding to Galpha-i3, primary screen, biochemical, fluorescence polarization, FITC-GIV GBA peptide, rat Galphai3; Guanine nucleotide-binding protein G(i) subunit alpha-3 (Rattus norvegicus), P08753; 90 min; stronger effect = lower value; scaled: aluminum fluoride 0%, vehicle 100%; percent of control (FP), % (no concentration beside the values); hit rate 0.42% among 210,000;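 active means replicate mean at 85% of control or lower, very high polarization wells dropped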;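 further: wells of about 15 µL received 100 nL stock; the first replicate is given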
Target sequence (P08753 whole entry, looked up): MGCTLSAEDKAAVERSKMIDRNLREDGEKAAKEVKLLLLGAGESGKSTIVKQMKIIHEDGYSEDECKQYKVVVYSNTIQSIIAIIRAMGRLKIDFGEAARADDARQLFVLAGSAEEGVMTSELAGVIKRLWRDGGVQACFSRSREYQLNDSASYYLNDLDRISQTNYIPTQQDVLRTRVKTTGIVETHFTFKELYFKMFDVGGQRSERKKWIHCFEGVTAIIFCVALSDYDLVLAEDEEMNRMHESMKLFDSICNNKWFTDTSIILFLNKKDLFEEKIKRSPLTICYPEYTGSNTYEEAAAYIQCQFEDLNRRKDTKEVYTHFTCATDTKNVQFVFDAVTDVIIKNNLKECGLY
Sa growth inh = S. aureus growth inhibition at 42 and 30 °C, primary screen, LtaS inhibitor project, RN4220, two temperatures; OD600, 20 h, 42 °C; stronger effect = lower value; relative growth, % (test concentration not listed); hit rate 0.53% among 170,000; AID 720641, 2013;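 active means growth at 42 °C up to 50% and 20 or more points under that at 30 °C, or under 10% at both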;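 further: 300 nL library stock went into each well; scaled to the means of positive and negative controls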
HCMV NEC inh = inhibitors of HCMV UL50-UL53 interaction, biochemical, HTRF. HCMV UL50-UL53 nuclear egress complex (human cytomegalovirus). normalized percent inhibition. inhibition, % (test concentration not listed). hit rate 0.15% among 190,000. AID 1918969, 2023;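 active means both replicates at 50% or more, plus weaker picks with an unusually low signal ratio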;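 further: stock transfer was 100 nL into about 20 µL; 0% = negative control wells and 100% = wells with untagged competitor protein; inactives centre near -12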
Sa growth inh second temp = recorded beside Sa growth inh, whose call it bears; relative growth, %; measured here: growth at 30 °C;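 optical density after 20 h as mean of two plates; 100% = untreated growth and lower means inhibition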
The depositor's hits bear a star; . = not tested or not shown; & = joins results of further samples.

Fields – GIV Gai3 FP	Sa growth inh	Sa growth inh second temp	HCMV NEC inh
- Cc1c(Cl)cccc1NC(c1ccc(F)cc1)c1nnc(-c2ccccc2)o1 (configuration not stated)
    105	85	88	.
- CCN1CCN(c2nnc(-n3cccc3CN3CCN(c4cc(C)ccc4C)CC3)s2)CC1
    106	.	.	-13
- COc1cc(C(CC(=O)Nc2cc(C)ccc2C)N2Cc3ccccc3C2=O)cc(OC)c1OC (configuration not stated)
    99	122	85	.
- COC(=O)c1cc(CN2CCOCC2)ccc1O
    100	108	79	-16
- Cn1nc(OC(C)(C)C(=O)Nc2ccc(Cl)cc2Cl)cc1C(F)(F)F
    102	97	97	-6
- COc1ccc(S(=O)(=O)N2CCC(NC(=O)NCc3ccccc3)CC2)cc1
    105	.	.	-6
- CCc1cc(=O)oc2cc(OCC(=O)c3ccc(F)cc3)ccc12
    .	103	90	-13
- Cn1cc(S(=O)(=O)c2ccc(Cl)cc2)c(=O)c2cc(F)c(N3CCOCC3)cc21
    107	109	90	.
- O=C(Nc1nc2ccccc2s1)C1c2ccccc2Oc2ccccc21
    104&92	122	73	-12
- O=C1CN2C(=Nc3ccc(Cl)cc3C2c2ccccc2)CN1 (configuration not stated)
    105	90	68	.
- CC1(C)Cc2c(sc3c2c(=O)n(Cc2ccccc2)c2nncn32)CO1
    .	94	87	-8
- COc1ccc(S(=O)(=O)N(CC(=O)N2CCN(c3ccccc3F)CC2)Cc2ccccc2)cc1
    102	.	.	-17
- COc1ccc(-n2ccnc(NCCc3ccccc3)c2=O)cc1
    105	91	89	-46
- CCOc1ccc(NC(=O)C2CC(=O)NC(=Nc3ccccc3)S2)cc1 (configuration not stated)
    98	98	83	-5
- COc1ccccc1/C=C1\SC(=S)N(CCC(=O)Nc2ccc(S(N)(=O)=O)cc2)C1=O
    104	.	.	3

Later entries.
Fields – GIV Gai3 FP	Sa growth inh	Sa growth inh second temp	HCMV NEC inh
- S=C(/N=c1/sccn1Cc1ccccc1)NC1CC1
    .	105	98	5
- O=S1(=O)CCN2N=C(c3ccccc3)C(c3ccccc3)=NC2=N1
    .	82	89	-137
- CC(=O)Nc1nc2c(C)cccc2s1
    .	106	90	-19
- Cc1cc2c(c(=O)n1CCN(C)C)C(c1ccncc1)C(C#N)=C(N)O2 (configuration not stated)
    101	105	87	.
- Cc1ccccc1NC(=O)C(CC(C)C)N1C(=O)c2ccccc2C1=O (configuration not stated)
    112	92	80	.
- CC(=O)N1CCC2(CC1)OC(=O)C(C)=C2C(=O)N1CCOCC1
    106&102	96	90	-13&-10
- CCN1CCCC1CNC(=O)CS(=O)Cc1nc(-c2ccc(OC)c(OC)c2)oc1C (configuration not stated)
    106	90	88	-14
- CN1CCc2nc(NC(=O)CC3Sc4ccccc4NC3=O)sc2C1 (configuration not stated)
    .	87	87	-13
- CCc1cccc(N2C(=O)C(O)=C(S(=O)(=O)c3ccccc3)C2c2ccc(C(=O)OC)cc2)c1 (configuration not stated)
    99	.	.	-18
- Cc1cc(C(=O)Cn2cc(S(=O)(=O)N(C)C)ccc2=O)c(C)n1-c1ccc2c(c1)OCO2
    .	89	86	-27
- CCOc1ccc(NC(=O)Cn2c(=O)n(Cc3ccco3)c(=O)c3ccc(C(=O)NC4CCCC4)cc32)cc1
    102	99	94	-30
- CCOC(=O)c1c(CS(=O)(=O)Cc2ccc(Cl)cc2)oc2c(F)c(F)c(F)c(F)c12
    107	91	102	3
- Cc1ccc(NC(=O)CN(c2ccc(C)cc2)S(=O)(=O)c2cccc3nonc23)cc1
    103	98	91	-32
- O=C(Cn1nc(N2CCN(c3ccccc3)CC2)ccc1=O)NCC1CCCO1 (configuration not stated)
    107	.	.	-40
- Cc1cc2c(cc1S(=O)(=O)N1CCN(c3ccccn3)CC1)OCCN2C
    107	.	.	-10

Other compounds.
Fields – GIV Gai3 FP	Sa growth inh	Sa growth inh second temp	HCMV NEC inh
- Cc1cccc(CNC(=O)Cn2ccc3cc(S(=O)(=O)N4CCCC4)ccc32)c1
    103	98	93	.
- O=S(=O)(c1ccc(Br)cc1)N1CCn2cccc2C1c1ccc(Br)cc1 (configuration not stated)
    104	115	82	.
- O=C(CSc1ccccn1)N/N=C/c1ccccc1
    96	106	93	-22
- Cc1cc(C2=Nc3ccccc3SC2)ccc1Cl
    101	89	87	-2
- CCC(=O)Nc1ccc2nc(SCC(N)=O)sc2c1
    106	.	.	-22
- CCCN(CCC)c1ncnc2c1cnn2-c1cccc(C)c1
    102	97	92	.
- COc1cccc(CNC(=O)CCCN2C(=O)CSc3ncccc32)c1
    101	92	85	-11
- C=CCN1C(=O)CC(C(=O)OCC)=C1C
    .	97	89	-10
- COc1ccc(-c2noc(C(C)NC(=O)c3ccco3)n2)cc1 (configuration not stated)
    107	81	96	-8
- O=C1C=CC(=O)C(CCC2=CC(=O)C=CC2=O)=C1
    105	87	86	-18
- CCOC(=O)Nc1ccc2c(COC(=O)C3COc4ccccc4O3)cc(=O)oc2c1 (configuration not stated)
    .	87	98	-6
- Cc1cc(N2CCOCC2)nc(-c2ccccc2O)n1
    103	112	101	1
- N#Cc1ccc(C(=O)Nc2cc3nn(-c4ccccc4)nc3cc2Cl)c(F)c1
    110	96	101	5
- O/N=C/c1nc2ccccc2[nH]1
    .	118	85	-16
- O=C(c1ccc(N2CCCCC2)c(S(=O)(=O)N2CCCCC2)c1)N1CCN(c2ccccn2)CC1
    108	.	.	-2

More structures follow:
Fields – GIV Gai3 FP	Sa growth inh	Sa growth inh second temp	HCMV NEC inh
- CC(C)(C)OC(=O)Nc1cccc(C(=O)OCCCn2c(=O)[nH]c3ccccc32)c1
    .	103	99	8
- O=C(O)CCC(=O)Nc1ccc(Oc2ccc(Cl)cc2)cc1
    .	140	94	-3
- O=C(CN1C(=O)c2cccnc2Sc2ccccc21)NCCCN1CCC(N2CCCCC2)CC1
    103	.	.	-21
- COCCNC(=O)N1CCN(S(=O)(=O)c2ccc3c(c2)NC(=O)CO3)CC1
    113	.	.	1
- CC1CCCC(C)N1NC(=O)c1ccc(Cl)c(S(N)(=O)=O)c1 (configuration not stated)
    .	90	96	-25
- CCc1nn2cc(-c3ccc(Cl)cc3)nc2s1
    .	94	86	-14
- CCCn1c2ccccc2c2cc(C(=O)O)ccc21
    101	74	77	5
- CN(C)c1ccc(C(CNS(=O)(=O)c2ccc(F)cc2F)N(C)C)cc1 (configuration not stated)
    103	.	.	3
- O=c1onc(-c2ccccc2C(F)(F)F)n1-c1cccnc1
    98	116	90	-4
- CCC1=NN2C(=N)/C(=C/c3cn(CCOc4cccc(OC)c4)c4ccccc34)C(=O)N=C2S1
    100	91	82	-24
- O=C1CSC(c2cn(-c3ccccc3)nc2-c2ccc(Cl)cc2)N1Cc1ccccc1 (configuration not stated)
    92	.	.	3
- COc1ccc(C2(CNC(=O)C(=O)Nc3ccc(C)c(Cl)c3)CCCC2)cc1OC
    102	94	88	-19
- CCCn1c(CCC(=O)Nc2ccc(C)cc2)nc2cccnc21
    123	93	80	-5
- O=C(Cn1cnc2c(nnn2Cc2ccc(Cl)cc2)c1=O)N1CCc2ccccc21
    100	99	99	8
- N#CC1=C(N)N(c2ncn[nH]2)C2=C(C(=O)CCC2)C1c1ccc(Br)cc1 (configuration not stated)
    107	101	82	-17

The listing continues:
Fields – GIV Gai3 FP	Sa growth inh	Sa growth inh second temp	HCMV NEC inh
- C=CCn1cc(C)c(=O)n(CC=C)c1=O
    100	74	87	-18
- O=C(O)c1ccccc1NCCC1=CCCCC1
    .	104	74	-16
- Cn1cnc(S(=O)(=O)N2CCC(C(=O)NCc3ccc(F)cc3)CC2)c1
    95	78	91	.
- S=C(NCCc1ccccc1)NN1CCOCC1
    103	105	107	1
- CCc1cccc(NC(=O)Cn2nc(C)c3sc4ccccc4c3c2=O)c1
    106	105	90	-7
- CCOc1ccccc1Nc1nc2ccccc2s1
    .	85	108	5
- CCOC(=O)c1[nH]c(C)c(S(=O)(=O)NC2CC2)c1C
    109	.	.	1
- COc1ccc(-c2cc(C(=O)Nc3sc4c(c3C(N)=O)CCCC4)no2)cc1
    102	94	91	2
- CC1(C)COCN1C(=O)c1cc2c(=O)n3ccccc3nc2s1
    100	95	86	-72
- CCc1ccc(CNC(=O)C(C)n2ccc3cc(S(=O)(=O)N4CCCCCC4)ccc32)cc1 (configuration not stated)
    103	93	90	.
- O=C(O)C1(c2cccc(Cl)c2)CCC1
    97	120	97	-12
- O=C(NCCc1ccccc1)c1cc(=O)[nH]c2ccccc12
    .	104	106	8
- Cc1ccc(/C=N/NC(=O)C2CC23CCC3)cc1 (configuration not stated)
    100	101	108	-11
- O=C(NC(=O)c1ccccc1Cl)NC1CC1
    99	77	89	-2
- CCOC(=O)C1=C(C)NNC(=Nc2cccc(C)c2C)S1
    .	74	93	0

Remaining list, next part.
Fields – GIV Gai3 FP	Sa growth inh	Sa growth inh second temp	HCMV NEC inh
- Cc1noc(C)c1C(=O)N1CCN(C(=O)c2ccco2)CC1
    103	96	90	-19
- CCS(=O)(=O)c1ccc(OC)c(NC(=O)c2cc3ccccc3o2)c1
    100	115	100	-10
- COc1ccccc1NC(=O)c1ccc2c(c1)C(=O)N(Cc1ccncc1)C2=O
    108	107	97	-50
- CSc1ccc(-c2nc(CSCC(=O)N3C(C)CCCC3C)c(C)o2)cc1 (configuration not stated)
    104	100	80	5
- Cc1ccc(C)c(CN2CCC(CNC(=O)Nc3ccc(Br)cc3F)CC2)c1
    101	95	56	9
- COC(=O)c1cc(C)nc2c1c(=O)nc(SCc1c(C)cc(C)cc1C)n2C1CC1
    102	70	59	.
- COC(=O)C1CCN(Cc2csc(-c3ccccc3OC)n2)CC1
    .	118	100	0
- CC(CNS(=O)(=O)c1ccc(-n2cccn2)cc1)c1ccccc1 (configuration not stated)
    107	98	94	.
- CN(CC(=O)Nc1ccccc1Cl)C(=O)c1cc(=O)[nH]c2ccccc12
    .	88	99	14
- CCOC(=O)c1c(C)oc2c1c1c(c3ccccc32)OCN(CCC(=O)O)C1
    .	103	86	-10
- Cc1cc(C(=O)OCCCc2nc(-c3ccccc3)no2)c2ccccc2n1
    .	88	94	-15
- CCN1C(=O)N/C(=C/c2cn(CC(=O)Nc3ccc(F)cc3)c3ccccc23)C1=O
    106	98	95	-9
- Cn1ccc(=O)[nH]c1=O
    .	85	93	7
- OC(CNCc1ccc(F)cc1)c1ccccc1 (configuration not stated)
    99	100	86	-19
- COc1ccccc1C(=O)N(C)S(=O)(=O)c1ccc(C)cc1
    .	107	89	-4

More results follow.
Fields – GIV Gai3 FP	Sa growth inh	Sa growth inh second temp	HCMV NEC inh
- O=S(=O)(c1ccc(Cl)cc1)n1nc(C(F)(F)F)c2cnccc21
    110	103	68	1
- COc1cccc(CNC(=O)COc2cc(=O)n(C)c3ccccc23)c1
    106	97	91	-21
- CCNC(=O)N1CCCC(c2cccc(C(=O)NCc3ccc4c(c3)OCO4)c2)C1 (configuration not stated)
    110	.	.	3
- CCC(C)C(=O)Nc1cccc(C(F)(F)F)c1 (configuration not stated)
    .	112	98	5
- Cc1ccc(CCNC(=O)c2ccc(CNS(=O)(=O)c3ccc(C)cc3)cc2)cc1
    100	112	94	.
- Cc1cccc(C)c1NC(=O)CSc1nc2ncccc2o1
    102	87	80	.
- COc1ccc(-c2cc(=O)oc3cc4occ(C)c4cc23)cc1
    105	95	88	-8
- O=C(NCCn1ccc2ccccc21)c1ccc(Cl)cc1
    107	134	94	-5
- NC(=O)c1ccc(NC(=O)Cc2coc3cc4c(cc23)CCC4)cc1
    .	102	93	1
- COc1ccc(-c2cn3nc(N4CCC(C(=O)Nc5ccccc5OC)CC4)sc3n2)cc1
    101	86	72	.
- CC1CN(C(=O)COC(=O)c2cccc3ccccc23)CC(C)O1 (configuration not stated)
    .	101	87	-66
- O=C(NCC12CC3CC(CC(C3)C1)C2)c1cc2nc(-c3ccc(F)cc3)cc(C(F)(F)F)n2n1
    104	111	86	.
- CN(C)CCNC(=O)C1CCCN(C(=O)c2nnc(C(=O)Nc3ccc(F)cc3)s2)C1 (configuration not stated)
    103	.	.	-31
- O=C(CCc1nc2cccnc2n1-c1ccccc1)NC1CCCCC1
    103	100	88	-12
- COc1ccc(CNC(=O)C(=O)Nc2c3c(nn2-c2ccccc2)CSC3)cc1
    106	116	78	.

Next section
Fields – GIV Gai3 FP	Sa growth inh	Sa growth inh second temp	HCMV NEC inh
- COC(=O)c1ccc(/C=C2/Oc3ccccc3N(Cc3ccccc3F)C2=O)cc1
    102	96	91	.
- O=C(NCc1ccc2c(c1)OCO2)C1CCCN1C(=O)NCc1ccccc1 (configuration not stated)
    104	90	90	-25
- O=c1cc(CSc2nc3ccccc3c(=O)n2-c2ccc(F)cc2)c2ccccc2[nH]1
    102	94	89	4
- CCc1ccccc1Nc1nc(N)nc(CNCc2ccc(F)cc2)n1
    .	134	91	-4

Exported with bars between the fields: part of the list above.
Molecule | GIV Gai3 FP | Sa growth inh | Sa growth inh second temp | HCMV NEC inh
O=c1cc(CSc2nc3ccccc3c(=O)n2-c2ccc(F)cc2)c2ccccc2[nH]1 | 102 | 94 | 89 | 4
CCc1ccccc1Nc1nc(N)nc(CNCc2ccc(F)cc2)n1 | . | 134 | 91 | -4
O=C(NCc1ccc2c(c1)OCO2)C1CCCN1C(=O)NCc1ccccc1 (configuration not stated) | 104 | 90 | 90 | -25
COC(=O)c1ccc(/C=C2/Oc3ccccc3N(Cc3ccccc3F)C2=O)cc1 | 102 | 96 | 91 | .
